Screening data as filed in PubChem BioAssay.
Mtb growth: Mycobacterium tuberculosis H37Rv growth inhibition, cell based, confirmatory dose response (AID 1949). most inactive calls were filed without a number and no value below 0 was filed. inhibition, % at 10 µg/mL; hits with a dose series show IC50 in µg/mL. 1.6% of 100,000 active;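 active means confirmed in a dose series; inconclusive means about 50% or more but not retested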;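 further: bacteria grown 7 days with compound before Alamar blue readout; 0% = untreated bacteria and 100% = reference antibiotic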
The depositor's hits bear a star; i = inactive; ? = inconclusive. The list is partial (hit frequency here may not be typical).

SMILES	Mtb growth
O=C(NC12CC3CC(CC(C3)C1)C2)N1CCN(C(=O)C2CCCO2)CC1 (stereo not given)	i
CCC(=O)Nc1ccc(C(=O)Nc2ccc(I)cc2C(=O)O)cc1	i
CC(C)(C)NC(=O)N1CCc2ccccc2C1	0.2%
COc1ccc2nc(-c3ccccc3)[nH]c2c1	i
CCOC(=O)C1=CN(C)C=C(C(=O)OCC)C1c1ccc(OC(F)(F)F)cc1	i
Cc1ccccc1N1C(=O)NC(=O)/C(=C\c2ccoc2)C1=O	i
C#Cc1cccc(NC(=O)c2ccc(OC)cc2)c1	i
COc1ccccc1CC(=O)NN1C(=O)c2ccccc2C1=O	i
Nc1cccc(-c2nn(-c3ccccc3)cc2C(=O)O)c1	i
O=C(NNC(=S)NCc1ccc(F)cc1)C(O)(c1ccccc1)c1ccccc1	i
CC1CN(c2nc(-c3ccc(F)cc3)cs2)CC(C)O1 (stereo not given)	6.2%
Cc1cc(C)n(C(=O)c2ccc(S(=O)(=O)N3CCOCC3)cc2)n1	i
CCc1ccc(OCC(=O)N2CCN(c3ccccn3)CC2)c(Br)c1	?
CCOc1cccc(CN2CCC(C(=O)N3CCN(Cc4ccccc4)CC3)CC2)c1O	i
O=C(NCc1ccc(Cl)cc1)C1CCN(S(=O)(=O)c2cc(Cl)ccc2Cl)CC1	1.4%
COc1ccc(CC(=O)NCC2OCCc3ccccc32)cc1 (stereo not given)	i
COc1cc(N/C(N)=N/c2nc(CSc3ccc(C)cc3)cc(=O)[nH]2)cc(OC)c1	i
O=C(Nc1ccc2oc(-c3cncc(Br)c3)nc2c1)c1ccc(Cl)c(Cl)c1	i
Cc1cccc(-c2nc3n(n2)C(=O)CC(c2cccc(F)c2)S3)c1 (stereo not given)	0.3%
CC1(C)CC(=O)C=C(Nc2cc(-c3ccccc3)[nH]n2)C1	3.2%
O=C(CCC1CCCC1)Nc1cccc(NC(=O)CCC2CCCC2)c1	i
COc1ccc(Cl)cc1NC(=S)NCCn1cc(Br)cn1	i
CC1(C)CC2CC(C)(CN2C(=O)CCCN2C(=O)c3ccccc3C2=O)C1 (stereo not given)	i
COc1cc(NC(=S)Nc2ccc(N3CCOCC3)cc2)c(OC)cc1Cl	i
CCOC(=O)N1CCN(C(=S)Nc2cc(C)cc(C)c2)CC1	3.5%
O=[N+]([O-])c1cccc(-c2noc(-c3cc(-c4ccccc4)nc4ccccc34)n2)c1	i
Cc1cccc(C)c1NC(=O)c1ccccc1N(Cc1ccccc1)S(C)(=O)=O	2.3%
O=C(O)c1cc([N+](=O)[O-])ccc1NCc1ccccc1	i
Cc1ccc(NC(=O)c2ccc(OC(=O)COc3cc(C)ccc3C(C)C)cc2)cc1	i
COCCNS(=O)(=O)c1ccc(I)cc1	i
CCCCC(=O)N1CCc2ccccc21	i
O=C(CCCC(=O)N1CCc2ccccc21)N1CCc2ccccc21	1.7%
COC(=O)C1=CN(c2cccc(C(F)(F)F)c2)C=C(C(=O)OC)C1c1cccc([N+](=O)[O-])c1	i
Oc1ccccc1-c1nc(/C=C/c2cccs2)nn1-c1ccccc1	i
O=C(c1sc2ccccc2c1Cl)N1CCC2(CC1)OCCO2	i
COc1ccc(C)cc1S(=O)(=O)N1CCN(c2cccc(C(F)(F)F)c2)CC1	i
Cc1ccc(S(=O)(=O)NC(=O)N(CCC#N)c2ccccc2)cc1	2.1%
COc1ccc(-c2cc3ccccc3n2CC(O)CNCC2CCCO2)cc1 (stereo not given)	i
CCNC(=O)N/C(=N/c1nc(C)cc(C)n1)Nc1cc(OC)c(Cl)cc1OC	i
CC1CCCCN1Cc1c(O)ccc2c(=O)c(-c3cccc(Cl)c3)c(C(F)(F)F)oc12 (stereo not given)	i
O=C(CSc1nnc(-c2ccncc2)n1-c1ccc(F)cc1)N1CCCC1	i
COc1ccc(CNC(=O)CN(C)S(=O)(=O)c2ccccc2)cc1	i
Fc1ccccc1Cn1c(/C=C/c2ccccc2)nc2ccccc21	46.6%
CN1CCN(NC(=O)COc2cccc(C(F)(F)F)c2)CC1	i
COC(=O)c1c(NC(=O)CSCCO)sc2c1CCCC2	i
Cc1ccccc1NC(=O)COc1ccc(C)c([N+](=O)[O-])c1	i
CC1(C)CC2CC(C)(CN2C(=O)C(Cc2ccccc2)N2C(=O)c3ccccc3C2=O)C1 (stereo not given)	i
CS(=O)(=O)NCCSc1nnnn1-c1ccccc1	1.8%
Cc1cc(S(=O)(=O)N(C)Cc2ccccc2)ccc1Cl	i
O=C(Nc1ccc(-c2nc3ccccc3c(=O)[nH]2)cc1)C1CCCCC1	i
Cc1cc2oc(C(=O)Nc3sc4c(c3C(=O)NCc3ccco3)CCC4)c(C)c2cc1C	i
CCC(C)NCCCOc1c(C)cc(C)cc1Br (stereo not given)	i
Cc1ccccc1Nc1nc(N)c2ccccc2n1	2.1%
CCc1sc(NC(C)=O)c(C(=O)OC)c1-c1ccccc1	i
COc1ccc(CNC(=O)CSc2c(-c3ccccc3)c3cc(Cl)ccc3[nH]c2=O)cc1	1.5%
Cc1ccc(S(=O)(=O)Nc2ccccc2CNc2cccc(C)c2C)cc1	i
COc1ccc(C2CC(c3ccc(Cl)cc3)Nc3ncnn32)cc1OC (stereo not given)	i
COc1ccc(NC(=O)CCC2CCCCC2)c(OC)c1	i
CCC(C(=O)Nc1ccccc1C(=O)N1CCOCC1)N1C(=O)c2ccccc2C1=O (stereo not given)	i
Cc1cccc(NC(=S)NNC(=S)NC2CCCCC2)c1C	0.1%
(continued)
SMILES	Mtb growth
CC(C)CN(Cc1c(O)ccc2c1oc(=O)c1ccccc12)CC(C)C	6.3%
CCOC(=O)C(C)NC(=O)c1ccccc1NC(=O)c1ccco1 (stereo not given)	i
COC(=O)c1ccccc1OC(=O)c1ccc(OC)cc1	i
O=S(=O)(NCc1nc(-c2ccccc2)no1)c1ccc(F)cc1	3.3%
NS(=O)(=O)c1ccc(NC(=O)CSC2=NCCS2)cc1	i
COc1ccc(CNCC(C)NCc2ccc(OC)c(OC)c2)cc1OC (stereo not given)	i
C=CCn1c(SCc2ccc(C(=O)OC)cc2)nc2sc3c(c2c1=O)CCC3	5.4%
Nc1cc(Cc2ccc(O)c(N)c2)ccc1O	i
CS(=O)(=O)c1ccc2nc(NC(=O)Cc3c(F)cccc3Cl)sc2c1	i
Cc1ccc(C2CC(=O)NC(SCC(=O)NCc3ccccc3)=C2C#N)cc1 (stereo not given)	i
Cc1ccc(C(=O)NC(C)(C)C)c(C)c1	3.0%
COc1cc(C2CC(=O)Nc3c2ccc2ccccc32)cc(Br)c1OC (stereo not given)	i
COc1ccc(-c2nc(C#N)c(NCc3ccccc3Cl)o2)cc1	i
O=C(Nc1sc2c(c1C(=O)NCCc1ccccc1)CCC2)c1ccco1	0.7%
Cc1c(C(=O)NC2CCCCC2)cccc1[N+](=O)[O-]	i
C/C=C/c1ccc(OCCOCCn2cnc3ccccc3c2=O)c(OC)c1	i
CCOC(=O)c1cnc2ccc(OC)cc2c1NCC(C)O (stereo not given)	i
CCOC(=O)N1N=C(c2ccccc2)CC1(O)C(C)(F)F (stereo not given)	0.6%
N/C(=N\OC(=O)c1ccccc1I)c1ccncc1	2.2%
COc1cc([N+](=O)[O-])cc2cc(C(=O)N3CCN(c4ccc(C)c(C)c4)CC3)c(=O)oc12	i
O=[N+]([O-])c1cc(CN2CCCCC2)c2cccnc2c1O	i
COc1ccc(OC(C)C(=O)N2CCN(C(c3ccccc3)c3ccccc3)CC2)cc1 (stereo not given)	i
CCOC(=O)Nc1cc(OC)c(OC)cc1Cc1nccc2cc(OC)c(OC)cc12	i
CSc1nc2ccc(I)cc2c(=O)n1C	i

Reformatted as a markdown table: 2 of the compounds above.
| Molecule | Mtb growth |
| --- | --- |
| C/C=C/c1ccc(OCCOCCn2cnc3ccccc3c2=O)c(OC)c1 | i |
| CCOC(=O)c1cnc2ccc(OC)cc2c1NCC(C)O (stereo not given) | i |

Carrying on.
SMILES	Mtb growth
FC(F)(F)c1ccc(-c2noc(/C=C/c3ccccc3)n2)cc1	i
CCC(CC)C(=O)NC(C)CCc1ccccc1 (stereo not given)	i
CCN(CC)C(=O)C(=O)Nc1ccc(Cl)c(C(F)(F)F)c1	4.0%
CC(C)CNC(=O)c1ccccc1NC(=O)C1COc2ccccc2O1 (stereo not given)	i
O=C(CN1CCCCC1)NCCNC(=O)CN1CCCCC1	i
CC(C(=O)c1ccccc1)n1cnc2ccccc2c1=O (stereo not given)	i
CSc1ccc(-c2nnn(CC(=O)NCc3ccc4c(c3)OCO4)n2)cc1	6.1%
COc1ccc(CC(=O)Nc2ccccc2C(=O)Nc2ccc(OC)cc2)cc1	i
CCNS(=O)(=O)c1cc(S(C)(=O)=O)ccc1Cl	i
Cc1cc(C)c2c(N)c(S(=O)(=O)Cc3ccc(Cl)cc3)sc2n1	i
Cc1ccc(-c2nc3cc(Cl)cc(Cl)c3o2)cc1N	5.5%
CCOc1ccc(OCCNCCCOC)cc1	i
Cc1ccccc1OCC(=O)Oc1ccc(Cl)cc1Br	0.2%
COc1c(F)c(F)c(C(=O)NC(C)C23CC4CC(CC(C4)C2)C3)c(F)c1F (stereo not given)	3.1%
Nc1cc(N)nc(SCC(=O)Nc2ccccc2)n1	i
Cc1cccc(/C=C/C(=O)Nc2ncc(Cc3ccc(F)cc3)s2)c1	i
O=S(=O)(c1ccccc1N1CCCCC1)C(F)(F)F	0.1%
Cc1ccc(OCCCC(=O)Nc2cc(C(F)(F)F)ccc2Cl)cc1	i
Cc1ccc(-c2nc3ncccc3o2)cc1NC(=O)Cc1ccc(Cl)cc1	i
CCOC(=O)CCc1c(C)c2ccc(OCc3ccc(Cl)c(Cl)c3)cc2oc1=O	2.5%
Clc1ccccc1Nc1ncnc2ccc(Br)cc12	1.4%
COc1cc([N+](=O)[O-])ccc1NC(=O)CC1Sc2ccccc2NC1=O (stereo not given)	i
CCOC(=O)CSc1nc(N)cc(=O)[nH]1	7.4%
CCN(C(=O)c1cc(C(=O)OC)cc([N+](=O)[O-])c1)c1ccccc1	i
O=C(CCC(=O)c1ccc(Oc2ccccc2)cc1)Nc1cccnc1	i
Cc1ccc(CCNc2ccccc2C)cn1	i
O=C(NCCc1c[nH]c2ccccc12)C(=O)NCc1ccc2c(c1)OCO2	2.6%
Nc1nc(Nc2ccccc2)nc(C(F)(F)F)n1	i
CC1CN(C(=O)C2c3ccccc3Oc3ccccc32)CC(C)O1 (stereo not given)	i
Cc1cc([N+](=O)[O-])ccc1NC(=O)COc1c(C)ccc(C)c1C	i
CCOc1ccc(-c2nc(C)c(C(C)=O)n2O)cc1	i
Cc1nc2cc(NC(=O)N3CCCC3)ccc2n1C	2.9%
CC1CCN(c2ccc([N+](=O)[O-])cc2C(=O)Nc2ccccc2)CC1	i
Cc1cccc(-n2c(/C=C/c3ccc([N+](=O)[O-])cc3)nc3ccc(Br)cc3c2=O)c1	3.0%
COc1ccc2c(c1)c(=O)oc1cc(OCc3ccc(C(=O)O)o3)ccc12	i
COc1ccccc1NC(=S)N(CC(C)C)CC(C)C	9.4%
CCCOc1ccccc1Nc1nnc(C)c(=O)[nH]1	7.8%
CSc1ccccc1C(=O)Nc1nc(=O)c2ccccc2s1	i
Cc1cc(F)c(F)cc1C(=O)N1CCN(C)CC1	i
CCOC(=O)c1cc(CC)sc1NC(=O)Cn1cnc2ccccc2c1=O	0.5%
Cc1nc2ccc(C(=O)N3c4ccccc4CC3C)cc2s1 (stereo not given)	0.2%
COc1ccc(CNC(=S)Nc2ccc(Cl)cc2C)cc1	i
Cc1nnc(Nc2ccc(F)cc2)[nH]c1=O	i
O=C(CSC1c2ccccc2Oc2ccccc21)Nc1ccc(C(=O)O)cc1	i
O=C(CCSc1nnc2scc(-c3ccccc3)n12)Nc1ccc(F)cc1	i
O=C(CCCN1C(=O)S/C(=C\C=C\c2ccccc2)C1=O)Nc1ccc(O)cc1	i
O=C(NCCC(c1ccccc1)c1ccccc1)C1CC1	i
COc1ccc(-c2nc(-c3ccccc3)c(-c3ccc(O)cc3)[nH]2)c(OC)c1	2.0%
CCS(=O)(=O)Nc1ccc(C2=NN(C(C)=O)C(c3ccco3)C2)cc1 (stereo not given)	3.2%
COc1cc(C(=O)Nc2ccc(Br)cc2)ccc1OC(C)C	4.3%
C=CCn1c(NCc2ccc(OC)cc2)nc2ccccc21	2.3%
CCOc1ccc(N(CC(=O)Nc2c(CC)cccc2CC)S(C)(=O)=O)cc1	i
Brc1ccccc1OCCOc1ncnc2ccccc12	i
CCCOc1ccc(NC(=O)c2ccco2)cc1	i
O=C(NCCC1=CCCCC1)C1CCN(S(=O)(=O)c2ccc(Br)cc2)CC1	i
CCCC1=NN(c2ccc([N+](=O)[O-])cc2)C(=O)/C1=C\N(C)C	i
CCCCC(=O)Nc1ccc(NC(=S)NC(=O)c2cccc(C)c2)cc1OC	i
Cc1cccc(N2CC(O)=C(c3nc4ccccc4s3)C2=N)c1C	4.8%
COc1ccccc1NC(=S)N1CCC(C(O)(c2ccccc2)c2ccccc2)CC1	i

Among those listed so far, 18 have four or more nitrogen atoms:
SMILES	Mtb growth
COc1cc(N/C(N)=N/c2nc(CSc3ccc(C)cc3)cc(=O)[nH]2)cc(OC)c1	i
COc1ccc(Cl)cc1NC(=S)NCCn1cc(Br)cn1	i
O=[N+]([O-])c1cccc(-c2noc(-c3cc(-c4ccccc4)nc4ccccc34)n2)c1	i
CCNC(=O)N/C(=N/c1nc(C)cc(C)n1)Nc1cc(OC)c(Cl)cc1OC	i
O=C(CSc1nnc(-c2ccncc2)n1-c1ccc(F)cc1)N1CCCC1	i
CS(=O)(=O)NCCSc1nnnn1-c1ccccc1	1.8%
Cc1ccccc1Nc1nc(N)c2ccccc2n1	2.1%
COc1ccc(C2CC(c3ccc(Cl)cc3)Nc3ncnn32)cc1OC (stereo not given)	i
Cc1cccc(NC(=S)NNC(=S)NC2CCCCC2)c1C	0.1%
O=C(CN1CCCCC1)NCCNC(=O)CN1CCCCC1	i
CSc1ccc(-c2nnn(CC(=O)NCc3ccc4c(c3)OCO4)n2)cc1	6.1%
Nc1cc(N)nc(SCC(=O)Nc2ccccc2)n1	i
Nc1nc(Nc2ccccc2)nc(C(F)(F)F)n1	i
Cc1nc2cc(NC(=O)N3CCCC3)ccc2n1C	2.9%
CCCOc1ccccc1Nc1nnc(C)c(=O)[nH]1	7.8%
Cc1nnc(Nc2ccc(F)cc2)[nH]c1=O	i
O=C(CCSc1nnc2scc(-c3ccccc3)n12)Nc1ccc(F)cc1	i
CCCC1=NN(c2ccc([N+](=O)[O-])cc2)C(=O)/C1=C\N(C)C	i
